# Compound activity (PubChem)
# VDR inh = vitamin D3 receptor (human) inhibition | actives 0.93% (n = 400,000) | Potency, µM, for the others: max response, negative = inhibition, usual class: inhibitors | VDR-SRC2-3 peptide fluorescence polarization, 2 h; active means well fitted inhibition curve with a large enough effect; inconclusive means small, poorly fitted or top-dose-only effect, or another doubt; inactive means no such curve, though single readings can be large or run the other way; further: series mostly up to about 120 µM
# Target sequence (P11473 whole entry, looked up): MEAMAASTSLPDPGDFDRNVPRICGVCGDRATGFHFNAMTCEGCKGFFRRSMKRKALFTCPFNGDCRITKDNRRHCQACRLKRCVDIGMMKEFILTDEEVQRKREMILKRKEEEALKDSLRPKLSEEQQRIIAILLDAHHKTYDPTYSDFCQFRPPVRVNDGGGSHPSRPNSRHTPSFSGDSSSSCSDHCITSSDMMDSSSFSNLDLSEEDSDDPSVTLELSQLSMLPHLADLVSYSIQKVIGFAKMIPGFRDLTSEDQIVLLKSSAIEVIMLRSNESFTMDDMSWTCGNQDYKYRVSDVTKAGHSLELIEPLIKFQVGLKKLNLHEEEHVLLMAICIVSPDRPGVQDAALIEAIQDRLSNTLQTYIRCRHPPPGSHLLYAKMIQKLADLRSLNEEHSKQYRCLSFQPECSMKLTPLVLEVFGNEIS
#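 Measured by FP: displacement of SRC2-3 coactivator peptide from VDR by library compounds, following a two-hour ambient incubation.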
# Active calls of the source: *; ? = inconclusive; [ ] = dose if it differs, or a comment. On the % scale 0 is the no-effect control and ±100 the full control effect; potency means the concentration at half of the fitted maximal effect.
SMILES,VDR inh
CC1CN(S(=O)(=O)c2ccccc2)C(C)N1C(=O)N1CCOCC1 (stereo not drawn),4%
CC1CC1C(=O)OCC(=O)NC(=O)NCc1ccco1 (stereo not drawn),9%
CCOC(=O)C1(CCCc2ccccc2)CCN(C(=O)Cc2nonc2C)CC1,-2%
COC(=O)CNS(=O)(=O)c1ccc(OC)cc1,-4%
CCOC(=O)N1CCN(C(=O)c2cccc(S(=O)(=O)Nc3ccc(OC)cc3)c2)CC1,5%
Cc1occc1-c1nnc(SCC(=O)N(C)c2ccccc2)o1,3%
NC(=O)c1ccc(NC(=O)COC(=O)C2(c3cccc(F)c3)CCCC2)cc1,-29%
CC(CNC(=O)c1ccc(OC2CCN(Cc3ccccn3)CC2)cc1)Oc1cccnc1 (stereo not drawn),1%
COc1cc(NC(=O)c2ccc3c(=O)n(Cc4ccco4)c(=S)[nH]c3c2)cc(OC)c1OC,6%
CCOC(=O)c1c(-c2ccc(C)cc2C)csc1NC(=O)CSc1nnnn1C,-12%
Cc1nc2cnc(N(C)C)nc2n(C[C@H]2CCCO2)c1=O,-2%
COc1ccc(NC(=O)CSc2ncnc3c2nnn3-c2ccc(F)cc2)c(OC)c1,?
C[C@H](CO)N1C[C@H](C)[C@@H](CN(C)S(=O)(=O)c2ccccc2)Oc2c(NC(=O)Nc3ccccc3)cccc2C1=O,-9%
COc1ccc(F)cc1S(=O)(=O)NCC(c1ccco1)S(=O)(=O)c1cccs1 (stereo not drawn),1%
COc1ccc(NC(=O)CSCC(=O)Nc2ccc(C)c(S(=O)(=O)N3CCCCCC3)c2)cc1,0%
COC(=O)c1ccc2c(C)c(C(C)(C)O)[nH]c2c1,24%
COc1cc(C(=O)N2CCN(Cc3ccc4c(c3)OCO4)CC2)c([N+](=O)[O-])cc1OC,-19%
Cc1nn(C)cc1/C=N/NC(=O)Cn1nccc1C,-4%
O=S(=O)(NCc1csc(-c2ccccc2)n1)c1ccccc1,-2%
CC(O)CNCCCOc1cccc(C(F)(F)F)c1 (stereo not drawn),8%

# Compounds listed so far containing a thiophene ring, fused or not (two):
SMILES,VDR inh
CCOC(=O)c1c(-c2ccc(C)cc2C)csc1NC(=O)CSc1nnnn1C,-12%
COc1ccc(F)cc1S(=O)(=O)NCC(c1ccco1)S(=O)(=O)c1cccs1 (stereo not drawn),1%

# Next compounds
SMILES,VDR inh
COc1ccc(C(=O)c2ccc(N(C)C)cc2)c2ccccc12,15%
COc1ccc(S(=O)(=O)NCC2CCCO2)cc1NC(=O)c1ccccc1F (stereo not drawn),37%[activator]
COc1ccc(-c2cc(C(=O)OCC(=O)c3cccc([N+](=O)[O-])c3)c3cc(C)ccc3n2)cc1,8%
Cc1ccc(C(=O)Nc2ccc(C(=O)O)cc2)cc1S(=O)(=O)N1CCC(C)CC1,-17%
Cc1cc(NC(=O)C(C)SCC(=O)Nc2cc(C(F)(F)F)ccc2N2CCOCC2)no1 (stereo not drawn),-8%
C#CCNC(=O)C1=C[C@@H](c2coc3ccccc3c2=O)C[C@@H](OCc2ccc(CO)cc2)O1,-6%
Cc1nc(/C=[N+](\[O-])C(C)(C)/C=N/O)n(O)c1C,19%
CN1CCN(c2cc(N3CCc4ccccc4C3)c(F)cc2[N+](=O)[O-])CC1,-3%
O=C(c1cccc(F)c1)N1CCC2(CC1)CN(c1ncccn1)C2,-2%
Cc1ccc(S(=O)(=O)Nc2cccc(-c3ccc(N4CCCCCC4)nn3)c2)c(C)c1,?
Nc1ccc2cc3[nH]c4cc(N)ccc4c3nc2c1,33%
O=C(NCCc1ccccc1)c1ccc(Cn2c(SCc3cccc(F)c3)nc3cccnc32)cc1,9%
O=c1[nH]c2cc3c(cc2cc1CN(Cc1ccco1)C(=S)NCC1CCCO1)OCCO3 (stereo not drawn),2%
O=C(CSc1nnc(CN2CCCCC2)n1-c1ccccc1)c1ccc2c(c1)OCO2,7%
Cc1ccc(C(=O)Nc2ccc(Br)cc2)cc1S(=O)(=O)NCc1ccccc1,24%
C=CCOc1c(Br)cc(/C=N/NC(N)=O)cc1OC,-4%
O=c1cnnc(N/N=C/c2cccs2)[nH]1,-4%
Cc1nc(SCC(=O)N2CCOCC2)c2c(C)c(C)sc2n1,2%
C/C(=N\NC(=O)c1nn(C)c(C)c1Br)c1ccc(NC(=O)C2CCCC2)cc1,-8%
O=C1CCCN2N=C(SCC(=O)N3N=C(c4ccc(Br)cc4)CC3c3ccc(F)cc3)SC2=N1 (stereo not drawn),-9%
COc1ccc(C(=O)Cc2ccccc2)cc1OC,0%
Cc1c(NC(=O)COC(=O)Cn2cc(C(F)(F)F)ccc2=O)cccc1[N+](=O)[O-],3%
CCOC(=O)c1c(S(=O)(=O)N2CCCC(C(=O)Nc3cccc(C#N)c3)C2)c(C)n(C)c1C (stereo not drawn),11%
C/C(=N/NC(N)=S)c1cc2ccc(O)cc2oc1=O,-13%
Cc1cc(C)cc(NC(=O)[C@@H](NC(=O)c2ccco2)C(C)C)c1,16%
O=C(CC12CC3CC(CC(C3)C1)C2)NCc1ccc(F)cc1,-26%
Cc1oc2c(F)c(F)c(F)c(F)c2c1S(=O)(=O)Nc1cccc(C(F)(F)F)c1,15%
Cn1cc(C(CC(=O)O)C(=O)O)c2ccccc21 (stereo not drawn),-8%
FC(F)C(F)(F)C1=CC(c2ccccc2)=NCCN1,-13%
CCn1c(CNc2ccc(Cl)cc2)nnc1SCC#N,5%
COC(=O)Nc1ccc(C)c2nsnc12,-7%
COc1ccc(/C=N/NC(=O)c2cccnc2)cc1CSc1nc2ccccc2s1,-1%
CC(C)CNC(=O)COC(=O)c1c2c(nc3ccccc13)/C(=C/c1cccs1)CC2,-7%
Cc1ccc(NC(=S)c2nc3ccccc3[nH]2)c(C)c1,-2%
CC(NC(=O)C(=O)Nc1nccs1)c1ccccc1 (stereo not drawn),15%
O=C1c2cccc3cccc(c23)C(=O)N1CCCCCc1n[nH]c(=S)o1,?
COc1ccc(CCNC(=O)Cn2cnc3scc(-c4ccccc4)c3c2=O)cc1OC,-6%
COc1ccc2[nH]c(=O)c3c(c2c1)OC(C)(C)C=C3,-3%
CC(=O)C1=C(O)C(=O)N(c2nccs2)C1c1ccccc1 (stereo not drawn),2%
CC(=O)Nc1ccc(S(=O)(=O)N(CC(=O)Nc2cc(C)on2)Cc2ccc(F)cc2)cc1,3%
Cc1ccc(NC(=S)Nc2ccccn2)c(C)c1,0%
O=C(NCc1ccncc1)Nc1ccc2c(c1)OCO2,-3%
COc1cc(OC)c(NC(=O)C(C)n2nc(-c3ccc(C)cc3)c3c(c2=O)CCCC3)cc1Cl (stereo not drawn),7%
COc1ccc(CNc2ncnc3ccc(-c4cccc(NS(C)(=O)=O)c4)cc23)c(OC)c1,-4%
O=C(c1cc(-c2cccnc2)nc2ccccc12)N1CCCc2ccccc21,-9%
CCOC(=O)c1nc(-c2ccc(OC)c(OC)c2)no1,1%
COc1ccccc1C(=O)Nc1c(C(=O)NC(C)(C)C)oc2ccccc12,7%
CC(NS(=O)(=O)c1ccc2c(c1)OCCCO2)C(=O)O (stereo not drawn),9%
O=C(Nc1ccc(S(=O)(=O)N2CCOCC2)cc1)c1ccco1,3%
Cn1cccc1CC(=O)N/N=C\c1c2ccccc2cc2ccccc12,-14%
CCOc1ccc(S(=O)(=O)NCCC(=O)NCCOc2ccccc2OC)cc1,11%
CCCn1c(N)c(C(=O)CSc2nc3ncc(Cl)cc3[nH]2)c(=O)n(C)c1=O,14%
CCCCn1c(N)c(N(CC)C(=O)c2cccc(OC)c2)c(=O)[nH]c1=O,-1%
COc1ccc(C/C(O)=C(\C#N)c2nc3ccccc3s2)cc1,5%
Cc1cccc(OCC(=O)Nc2ccc(S(=O)(=O)N3CCCC3)cc2)c1,-23%
CCOc1ccc(-c2cc(NC(=O)Nc3cccc(C(C)=O)c3)c(C(=O)OC)s2)cc1,19%
O=C(NCC(=O)N1CCC(Cc2ccccc2)CC1)c1ccc(Cl)cc1,-21%
Cc1ccc(-c2c3c(=O)n(C)c(=O)n(C)c3cn2Cc2cccnc2)cc1,6%
Nn1c(SCC(=O)NC2CCCCC2)nnc1-c1ccccc1,4%
Cn1cc([N+](=O)[O-])c(C(=O)Nc2ccc3nc(-c4ccccc4)[nH]c3c2)n1,-13%
# Later entries:
SMILES,VDR inh
COc1ccc(S(=O)(=O)N2CCN(C(=O)CCOc3ccccc3)CC2)cc1OC,6%
COC(=O)c1ccc(NC(=O)Nc2ccc(OC)c(OC)c2)cc1,-1%
CCc1nnc(NC(=O)c2ccc(N(C)S(=O)(=O)c3ccccc3)cc2)s1,-3%
Cc1ccc(N(CC(=O)NCCSCc2ccco2)S(=O)(=O)c2ccc(C)cc2)cc1,-12%
CC1=C(C(=O)NCCN2CCOCC2)C2(CCC(C)CC2)OC1=O (stereo not drawn),-11%
O=C(Cn1ncc2c1-c1ccccc1OC2)N(Cc1ccco1)C1CCCCC1,-7%
CC(Oc1ccccc1)C(=O)N1CCN(c2ncccn2)CC1 (stereo not drawn),-12%
CN(C)c1ccc(C(=O)OCC(=O)N2CCCC2)cc1,4%
CCN(Cc1ccccc1)Cc1nc(CCc2ccccc2)no1,-20%
Cc1cc2[nH]c(=O)c(=O)[nH]c2cc1S(=O)(=O)NC1CCC(C)CC1 (stereo not drawn),12%
CC1=NNC(=O)C1C(c1cccc(O)c1)C(C#N)C#N (stereo not drawn),4%
COc1ccccc1NC(=O)CCCCCN1C(=O)c2cccc([N+](=O)[O-])c2C1=O,-12%
Cc1cccc(NC(=S)NNC(=O)c2csc(C)c2)c1,-31%
O=C(NN=Cc1ccc2c(c1)OCO2)c1ccccc1,26%
CCC(CO)N=CC1=C(O)CC(C)(C)CC1=O (stereo not drawn),2%
Cn1cccc1/C=C1\CCc2ccccc2C1=O,-20%
O=C1C(=O)N(CCN2CCOCC2)C(c2ccccc2F)/C1=C(\O)c1ccc(S(=O)(=O)N2CCOCC2)cc1 (stereo not drawn),-22%
O=C(COc1ccc2ccc(=O)oc2c1)Nc1cccnc1,11%
COc1ccc(-c2cc(=O)oc3cc(OCC(=O)N[C@@H](Cc4c[nH]c5ccccc45)C(=O)O)ccc23)cc1,-25%
Cc1ccc(S(=O)(=O)Nc2cc(C)nn2-c2ccccc2)cc1,-8%
O=C(Nc1ccccc1)N1CC2(CCN(S(=O)(=O)c3ccccc3)CC2)C1,2%
CC1CCCCC1NC(=O)c1cc(S(=O)(=O)N2CCOCC2)ccc1Cl (stereo not drawn),-14%
COc1ccccc1/C=C(\NC(=O)c1cccc(C)c1)C(=O)Nc1ccccn1,-12%
C/C(=N\OC(=O)NC1CCCCC1)c1sc(-c2ccccc2)nc1C,5%
O=C(COC(=O)C1=COCCO1)Nc1ccccc1Oc1ccccc1,-3%
COc1ccc(-c2nnc(NC(=O)CS(=O)(=O)c3ccc(F)cc3)o2)c(OC)c1,7%
O=C(O)c1cc(O)ccc1NC(=O)C1CCCO1 (stereo not drawn),0%
Cc1c(NC(=O)c2c(F)cccc2F)c(=O)n(-c2ccccc2)n1C,-2%
Cc1cc(C)cc(NC(=O)COC(=O)COc2ccc(N(C)S(=O)(=O)c3cccs3)cc2)c1,-3%
CS/C(=N\S(=O)(=O)c1cccs1)NC(=O)CSc1nc2ccccc2s1,?
COc1ccccc1N1CCN(S(=O)(=O)CCNC(=O)C23CC4CC(CC(C4)C2)C3)CC1,7%
Cc1ccc(C2=NN3C(=O)c4ccccc4C3C2)cc1 (stereo not drawn),-18%
Cc1cccc(C(=O)OCc2cc(=O)n3ccsc3n2)c1,5%
O=c1c(O)c(-c2ccc(O)c(O)c2)oc2cc(O)ccc12,-15%
Cc1ccc(S(=O)(=O)N(C)C)cc1NC(=O)COC(=O)/C=C/c1cccs1,?
O=C(c1cc2sccc2n1Cc1ccccc1)N1CCCc2ccccc21,7%
CCOC(=O)c1c(C)[nH]c(C)c1C(=O)CSc1nc(N)cc(=O)[nH]1,-17%
COc1ccc(C2N(C(=O)C(F)(F)F)C(C)CN2S(=O)(=O)c2ccc(C)cc2)cc1 (stereo not drawn),-19%
Cc1cc(C)cc(N)c1,-17%
Cc1ccc(N(CC(=O)N2CCN(c3ccc(Cl)cc3)CC2)S(=O)(=O)c2c(C)nn(C)c2C)cc1,-11%
Cc1ccc(CSC2=Nc3sccc3C3=NC(=O)CN23)cc1,8%
CCC(CC)C(=O)Nc1c2c(nn1-c1ccc(OC)cc1)CS(=O)(=O)C2,-7%
CCN(CC)C(=O)c1sc2c(c1C)c(=O)n(-c1ccc(Cl)c(Cl)c1)c(=O)n2Cc1cc(=O)n2c(C)cccc2n1,5%
CC(=O)OCc1c(C(F)(F)F)nn(C)c1Sc1ccccc1,-6%
CCCCCCCC(=O)Nc1ccc(C(=O)N/N=C/c2cccc([N+](=O)[O-])c2)cc1,-3%
COc1ccc(C(=O)OCC(=O)c2cc(OC)ccc2OC)c(OC)c1,16%
COc1ccccc1CNC(=O)c1ccc(S(=O)(=O)N2CCCC2)cc1,-4%

# In the list so far, these contain an aryl thioether with sulfur outside any ring:
SMILES,VDR inh
Cc1occc1-c1nnc(SCC(=O)N(C)c2ccccc2)o1,3%
CCOC(=O)c1c(-c2ccc(C)cc2C)csc1NC(=O)CSc1nnnn1C,-12%
COc1ccc(NC(=O)CSc2ncnc3c2nnn3-c2ccc(F)cc2)c(OC)c1,?
O=C(NCCc1ccccc1)c1ccc(Cn2c(SCc3cccc(F)c3)nc3cccnc32)cc1,9%
O=C(CSc1nnc(CN2CCCCC2)n1-c1ccccc1)c1ccc2c(c1)OCO2,7%
Cc1nc(SCC(=O)N2CCOCC2)c2c(C)c(C)sc2n1,2%
CCn1c(CNc2ccc(Cl)cc2)nnc1SCC#N,5%
COc1ccc(/C=N/NC(=O)c2cccnc2)cc1CSc1nc2ccccc2s1,-1%
CCCn1c(N)c(C(=O)CSc2nc3ncc(Cl)cc3[nH]2)c(=O)n(C)c1=O,14%
Nn1c(SCC(=O)NC2CCCCC2)nnc1-c1ccccc1,4%
CS/C(=N\S(=O)(=O)c1cccs1)NC(=O)CSc1nc2ccccc2s1,?
CCOC(=O)c1c(C)[nH]c(C)c1C(=O)CSc1nc(N)cc(=O)[nH]1,-17%
CC(=O)OCc1c(C(F)(F)F)nn(C)c1Sc1ccccc1,-6%

# These rows are one share of the data, so the mix of outcomes need not match the whole.
